Screens: PubChem, several laboratories
GALR2 ag – agonists of human galanin receptor 2 (GALR2); O43603; GALR2-expressing cells, agonist activation read-out; activation, %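 (tested at 5 µM)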; hit rate 0.48% among 140,000; AID 803;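 active = above mean plus 3 SD of all compounds, about 5% in these data, not always enough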;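 also: 0% = vehicle buffer wells and 100% = reference agonist at full effect; tested in CHO reporter cells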
Target sequence (O43603 whole entry, looked up): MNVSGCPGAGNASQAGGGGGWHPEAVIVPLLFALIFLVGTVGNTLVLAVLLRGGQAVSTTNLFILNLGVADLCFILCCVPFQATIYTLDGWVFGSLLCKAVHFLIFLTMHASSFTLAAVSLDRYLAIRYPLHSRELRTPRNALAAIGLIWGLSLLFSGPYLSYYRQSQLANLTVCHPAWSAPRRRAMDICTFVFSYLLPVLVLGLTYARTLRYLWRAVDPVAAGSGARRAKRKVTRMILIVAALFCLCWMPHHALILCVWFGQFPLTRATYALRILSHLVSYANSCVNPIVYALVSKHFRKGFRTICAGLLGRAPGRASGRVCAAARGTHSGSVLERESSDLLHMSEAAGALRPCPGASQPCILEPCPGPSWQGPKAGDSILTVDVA
INS promoter inh – TRM-6 insulin promoter activity inhibition; TRM-6 cells (human fetal islet line), insulin promoter-eGFP reporter, imaging; reporter expression induced with tamoxifen; inhibition, % at 2 µM; hit rate 0.9% among 130,000;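 active = inhibition above the mean plus 3 SD, with well images judged a real hit on visual review, cut at about 60% in these data, passing the limit was not always enough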
RGS16-Gao HTS – modulates binding between human RGS16 and Galphao. O15492+P09471. bead-based flow cytometry RGS16-Galphao binding, fluorescence; actives lie on both sides. binding response (% of control), % at 10 µM. hit rate 0.38% among 220,000;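 active = below 25% or above 175%, edge rows of some plates excepted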;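 also: Galphao activated by GDP with aluminum fluoride before binding; 100% = wells without compound and 0% = beads without RGS; some results beyond the cut were filed as inactive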
Target sequence (O15492 whole entry, looked up): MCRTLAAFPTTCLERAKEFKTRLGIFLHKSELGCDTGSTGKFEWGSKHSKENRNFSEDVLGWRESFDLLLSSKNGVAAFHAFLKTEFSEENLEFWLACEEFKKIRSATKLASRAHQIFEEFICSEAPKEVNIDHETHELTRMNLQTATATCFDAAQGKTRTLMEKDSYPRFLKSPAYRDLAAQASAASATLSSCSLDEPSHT
Target sequence (P09471 whole entry, looked up): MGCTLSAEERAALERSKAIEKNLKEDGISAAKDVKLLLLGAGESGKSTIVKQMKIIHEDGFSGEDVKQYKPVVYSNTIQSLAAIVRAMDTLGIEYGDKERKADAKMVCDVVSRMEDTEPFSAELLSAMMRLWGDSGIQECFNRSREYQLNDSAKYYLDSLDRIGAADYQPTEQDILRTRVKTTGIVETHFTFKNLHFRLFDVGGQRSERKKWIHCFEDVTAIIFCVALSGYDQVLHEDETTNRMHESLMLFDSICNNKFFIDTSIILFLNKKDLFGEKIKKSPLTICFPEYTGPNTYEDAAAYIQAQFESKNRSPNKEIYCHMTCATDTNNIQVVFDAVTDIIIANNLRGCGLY
PKD1 kinase inh – PKD1 (human) kinase inhibition | PKD1 kinase fluorescence polarization assay | inhibition, %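 (about 10 µM by stock and volumes)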 | hit rate 0.056% among 200,000;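 active = inhibition of 50% or more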;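 also: controls were vehicle for no effect and a reference inhibitor for full effect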
HSV replic up – increases HSV replication in cells; HSV replication augmentation in cells, fold increase; maximum fold increase; hit rate 0.005% among 220,000; AID 1956;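 active = peak rise of 1.5-fold or more in the series; tested in PC3 cells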;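 also: first round at 10 µM; read as green reporter fluorescence; hits show the peak of a series up to 25 µM; 1 = signal of infected wells without compound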
INS promoter inh cell count – further read-out of INS promoter inh, marked with its call; normalized cell count, %; measured here: cell count, toxicity; reference of the scale not given here;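 cells exposed to compound for 48 h; stained nuclei by imaging scaled within each plate; lower means fewer cells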
HSV replic up primary fold – further read-out of HSV replic up, marked with its call; fold increase; compound at 10 µM; measured here: primary screen fold increase 10 uM; tested in PC3 cells;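 GFP signal in the first replicate; 1 = infected wells without compound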
The depositor's hits bear a star; i = inactive; x = not tested or not shown.

SMILES | GALR2 ag | INS promoter inh | INS promoter inh cell count | RGS16-Gao HTS | PKD1 kinase inh | HSV replic up | HSV replic up primary fold
Cc1csc(OCc2ccc(C#N)cc2)n1 | -0.9 | -17 | 104 | 139 | 1 | i | 0.71
COc1ccc(OCC(=O)Nc2ccc3c(c2)nc(CCN2CCOCC2)n3C)cc1 | -1.4 | x | x | 101 | 0 | i | 0.99
CC(C)(C)C(=O)Nc1ccc(C(=O)NNC(=O)c2ccccc2)cc1 | x | x | x | 101 | -2 | i | 0.8
COC(=O)c1sc2nc(CN3CCN(c4cccc(C(F)(F)F)c4)CC3)[nH]c(=O)c2c1C | -0.8 | x | x | 100 | -3 | x | x
O=C1N/C(=C/c2ccc(N3CCCC3)cc2)C(=O)N1c1ccccc1 | 1.9 | -24 | 83 | 64 | -20 | i | 1
Cc1cccc(OCCCC(=O)O)c1C | -2.1 | 38 | 65 | 102 | -8 | i | 0.96
CCOC(=O)c1sc(-c2ccc(F)cc2)cc1N | -0.1 | 8 | 93 | 93 | 1 | i | 0.88
CC(C)C(=O)N1CCN(c2ccccc2NC(=O)Cc2ccc(Cl)cc2)CC1 | 0.6 | x | x | 95 | 6 | i | 0.94
CCC(C)c1ccc(NC(=S)Nc2ccc(OC)cc2C)cc1 (centres undefined) | -1.8 | x | x | 104 | -5 | i | 0.99
CC(C)(C)C(=O)Nc1ccc(C(=O)N/N=C/c2ccccc2OC(=O)c2ccc(Cl)cc2)cc1 | -0.5 | 0 | 125 | 100 | 0 | i | 0.66
O=C(COc1ccccc1)NCC(=O)Nc1cccc(S(=O)(=O)NC2=NCCC2)c1 | x | 13 | 130 | 105 | -10 | i | 0.77
Cc1cccc(N)c1-c1c(C)cccc1N | x | 55 | 111 | 119 | -1 | i | 1.1
O=C(COC(=O)/C=C/c1ccc(S(=O)(=O)N2CCOCC2)cc1)NC1CCCCCCC1 | x | x | x | 97 | 5 | i | 1
CCCn1c(=O)c2[nH]cnc2n(-c2ccc(Cl)cc2)c1=O | x | x | x | 113 | x | i | 1.1
CCOC(=O)Cn1c(=NC(=O)CC)sc2c(C)cc(C)cc21 | x | x | x | 101 | x | i | 1.1
C#CCOC(=O)c1ccccc1C(=O)N(CC)CC | -1.1 | x | x | 102 | -8 | i | 1
O=C(O)C(Cc1c[nH]c2ccccc12)NS(=O)(=O)c1ccc(Cl)cc1 (centres undefined) | x | x | x | 118 | -1 | i | 0.93
CCCOc1cc(C)c(S(=O)(=O)NC2CC(C)(C)NC(C)(C)C2)cc1C | -1.2 | -16 | 99 | 96 | -19 | i | 0.76
O=C1CC[C@@H](CN(Cc2ccccn2)Cc2nc(Cc3ccccc3)no2)N1 | x | x | x | 107 | 3 | i | 0.97
CNC(=O)[C@H](C)[C@@H]1C[C@@]1(C)[C@@H](NC(=O)OCc1ccccc1)c1ccccc1 | -5.0 | 23 | 100 | 57 | -3 | i | 0.95
CC(OC(=O)CC(NC(=O)c1ccccc1Cl)c1ccccc1)C(=O)Nc1cccc(Cl)c1Cl (centres undefined) | -2.9 | x | x | 57 | -11 | i | 0.67
CCCc1oc(C(=O)O)cc1CN1CCOCC1 | -2.2 | 35 | 107 | 103 | -7 | i | 0.99
Cc1ccccc1/C=N/Nc1nc2ccccc2c(=O)n1O | x | x | x | 88 | x | i | 0.95
COc1ccnc(NCc2ccc(Cl)cc2)c1C#N | -2.0 | 3 | 172 | 106 | 11 | i | 1

Limited to GALR2 ag and RGS16-Gao HTS, for some of the entries so far:
compound	GALR2 ag	RGS16-Gao HTS
Cc1ccccc1/C=N/Nc1nc2ccccc2c(=O)n1O	x	88
COc1ccnc(NCc2ccc(Cl)cc2)c1C#N	-2.0	106

Next part.
SMILES | GALR2 ag | INS promoter inh | INS promoter inh cell count | RGS16-Gao HTS | PKD1 kinase inh | HSV replic up | HSV replic up primary fold
N#C/C(=C\c1ccc(Cl)cc1Cl)c1n[nH]c(Cn2cncn2)n1 | -0.4 | -79 | 29 | 99 | -9 | i | 0.84
COc1ccc(-c2nc3ccccc3n2Cc2ccccc2)cc1 | -0.5 | 1 | 94 | 105 | -3 | i | 0.92
O=C(Nc1cccc(F)c1)NC1CCN(Cc2ccccc2)CC1 | x | x | x | 98 | 1 | i | 0.88
COc1ccc(/C=C(\C#N)C(=O)Nc2cc(S(=O)(=O)N3CCOCC3)ccc2N2CCCC2)cc1 | -1.1 | 36 | 154 | 67 | -7 | i | 0.91
O=C(NC(=O)N1CCN(c2cccc(Cl)c2)CC1)c1ccccc1 | -3.7 | 0 | 152 | 100 | 1 | i | 0.94
CCN(C(=O)CN1c2ccccc2CC1C)c1c(N)n(Cc2ccccc2)c(=O)[nH]c1=O (centres undefined) | x | -50 | 63 | 71 | 3 | i | 1.1
Oc1cccc(/C=N/N(Cc2ccccc2)c2ccccc2)c1 | x | x | x | 100 | -8 | i | 0.94
CC(C)CCNC(=O)NC(=O)CSc1nnc2ccccn12 | -1.9 | x | x | 101 | 6 | i | 0.61
CCN=C1SCC(=O)N1c1ccc(OC)cc1 | -2.3 | -69 | 92 | 81 | -1 | i | 0.84
COC(=O)Cc1ccc(NC(=S)NCCCO)cc1 | -1.1 | 14 | 136 | 96 | -6 | i | 0.94
CC1CCN(c2cc(N3CCOCC3)c(F)cc2[N+](=O)[O-])CC1 | -1.1 | -23 | 64 | 101 | -5 | i | 1.1
CC1CCCC(C)N1C(=O)COC(=O)C(Cc1ccccc1)NC(=O)c1cccs1 (centres undefined) | -1.1 | -158 | 2 | 112 | -1 | i | 0.96
N#C/C(=C\c1ccc(Cl)c([N+](=O)[O-])c1)c1ccccn1 | x | 24 | 100 | 98 | -7 | i | 0.66
COc1ccc([C@@H]2C[C@H](c3ccccc3)Oc3cc(OC)c(OC)c(OC)c32)cc1 | x | x | x | 100 | x | i | 1
OCC1(Cc2ccc(Cl)cc2)CCN(Cc2ccc(Oc3ncccn3)cc2)CC1 | x | x | x | 104 | 0 | i | 0.97
O=C1N=C(N2CCCC2)S/C1=C\c1ccccc1 | -2.2 | -170 | 112 | 116 | -3 | i | 0.85
Cc1ccc(C(C(=O)NC(C)(C)C)N(C(=O)c2csnn2)c2cccc(F)c2)o1 (centres undefined) | -0.9 | 7 | 118 | 118 | 5 | i | 0.83
O=C(CN1CCN(S(=O)(=O)c2ccc(Cl)cc2)CC1)Nc1ccc2c(c1)OCO2 | -1.7 | -24 | 108 | 97 | 0 | i | 0.85
COc1ccc(S(=O)(=O)NNC(=O)C2CC(c3cccnc3)=NO2)cc1 (centres undefined) | x | x | x | 107 | 7 | i | 0.98
COC(=O)CN(c1ccc(C)cc1)S(=O)(=O)c1ccc2c(c1)n(C)c(=O)c(=O)n2C | -1.8 | 3 | 118 | 105 | 2 | i | 1
N#C/C(=C(/O)CO/N=C/c1ccccc1Cl)c1nc2ccccc2[nH]1 | x | x | x | 101 | x | i | 0.85
CCOC(=O)N1CCN(C(=O)C(=O)NNC(=O)COc2ccc(Cl)cc2)CC1 | -2.4 | x | x | 94 | -6 | i | 1
Cc1sc2nc(CSCC(=O)NC(C)(C)C)[nH]c(=O)c2c1C | x | -93 | 129 | 104 | 5 | i | 0.95
COc1cc(-c2cc(C(=O)OCC(=O)Nc3ccc4c(c3)OCO4)c3ccccc3n2)cc(OC)c1OC | 1.1 | -44 | 87 | 86 | 5 | i | 0.99
CCC(=O)Nc1ccc2nc(SCC(=O)N3CCOCC3)sc2c1 | x | 18 | 127 | 107 | 6 | i | 0.88
CNCC(O)CN(c1ccccc1)c1ccccc1 (centres undefined) | x | 27 | 109 | 105 | 6 | i | 1
COc1cc([N+](=O)[O-])ccc1Nc1nc(C)cc(C)n1 | x | x | x | 100 | -2 | i | 0.95
COc1cccc(OC)c1C(=O)NC(=S)Nc1cc(-c2nc3ccccc3[nH]2)ccc1Cl | -0.8 | 43 | 101 | 88 | 1 | i | 0.8
COc1ccc(NC(=O)CSc2nnnn2C2CCCC2)cc1 | x | x | x | 104 | -3 | i | 0.92
O=C(Nc1cccc(S(=O)(=O)N2CCOCC2)c1)c1cn(-c2ccccc2)nc1-c1ccc(F)cc1 | -2.0 | -84 | 11 | 103 | 1 | i | 0.96
Cc1c(NC(=O)C(=O)/C=C(\O)c2ccc(Cl)cc2)c(=O)n(-c2ccccc2)n1C | 0.9 | 24 | 104 | 108 | -13 | i | 0.94
COc1ccc(NC(=O)c2ccc3c(c2)n(C)c(=O)n3C)cc1 | 0.1 | -15 | 122 | 106 | -8 | i | 1
O=C(O)Cn1cc(/C=C2/SC(=O)N(CC(=O)N3CCCCCC3)C2=O)c2ccccc21 | x | 27 | 104 | 101 | 0 | i | 0.91
C/C(=C\c1ccccc1)CN1CCC(C(=O)N2CCC(C)CC2)CC1 | -1.0 | -46 | 67 | 108 | 5 | i | 0.94
CC(=O)c1ccc(-n2c(C)ccc2-c2ccccc2)cc1 | -2.3 | x | x | 191 | -3 | i | 0.88
O=C(Cc1ccc(S(=O)(=O)N2CCOCC2)s1)Nc1ccc(N2CCOCC2)cc1 | x | 7 | 137 | 102 | -1 | i | 0.87
CCOC(=O)c1nn(-c2cccc(Cl)c2)c2nc(Nc3ccccc3)cc(=O)n12 | 0.4 | x | x | 109 | -3 | i | 0.99
CN1CCN(C(=O)/C=C\C(=O)O)CC1 | -0.3 | -13 | 90 | 103 | 1 | i | 1
CCC(=O)N1CCc2cc(S(=O)(=O)NC(Cc3ccccc3)C(=O)Nc3nccs3)ccc21 (centres undefined) | -1.8 | -106 | 96 | 39 | 11 | i | 0.96
O=C(Nc1ccccc1-c1ccccc1)C1CCCCC1 | -1.7 | x | x | 99 | -3 | i | 1.1
COc1cccc(CC(=O)NNC(=O)c2c(-c3ccccc3)noc2C)c1 | x | x | x | 103 | x | i | 1
CNC(=O)NNC(=O)c1csc(-c2ccc(C(F)(F)F)cc2Cl)n1 | x | x | x | 93 | x | i | 0.95
CCN(CC)S(=O)(=O)c1ccc(N2CCCC2)c(NC(=O)c2ccncc2)c1 | x | x | x | 105 | x | i | 0.95
CC(C)Oc1ccc(C(=O)Nc2ccc(N(C)C)cc2)cc1 | -2.9 | x | x | 96 | 2 | i | 0.76
CCOC(=O)CN(C(=O)Cn1nnc2ccccc21)C(C(=O)NCCOC)c1ccccc1C (centres undefined) | -1.4 | 21 | 79 | 107 | -2 | i | 0.82
O=C(COc1cccc(Cl)c1)Nc1cc(S(=O)(=O)N2CCOCC2)ccc1N1CCOCC1 | x | x | x | 99 | x | i | 0.86
Cc1cc(N2CCN(c3nnnn3-c3ccccc3)CC2)n2ncnc2n1 | 0.1 | x | x | 554 | -22 | i | 0.96

Rewritten as labelled records: part of the list above.
CCOC(=O)c1nn(-c2cccc(Cl)c2)c2nc(Nc3ccccc3)cc(=O)n12
  GALR2 ag = 0.4 | INS promoter inh = x | INS promoter inh cell count = x | RGS16-Gao HTS = 109 | PKD1 kinase inh = -3 | HSV replic up = i | HSV replic up primary fold = 0.99
CC(C)CCNC(=O)NC(=O)CSc1nnc2ccccn12
  GALR2 ag = -1.9 | INS promoter inh = x | INS promoter inh cell count = x | RGS16-Gao HTS = 101 | PKD1 kinase inh = 6 | HSV replic up = i | HSV replic up primary fold = 0.61

Among those listed so far, these contain a tert-butyl group.
SMILES | GALR2 ag | INS promoter inh | INS promoter inh cell count | RGS16-Gao HTS | PKD1 kinase inh | HSV replic up | HSV replic up primary fold
CC(C)(C)C(=O)Nc1ccc(C(=O)NNC(=O)c2ccccc2)cc1 | x | x | x | 101 | -2 | i | 0.8
CC(C)(C)C(=O)Nc1ccc(C(=O)N/N=C/c2ccccc2OC(=O)c2ccc(Cl)cc2)cc1 | -0.5 | 0 | 125 | 100 | 0 | i | 0.66
Cc1ccc(C(C(=O)NC(C)(C)C)N(C(=O)c2csnn2)c2cccc(F)c2)o1 (centres undefined) | -0.9 | 7 | 118 | 118 | 5 | i | 0.83
Cc1sc2nc(CSCC(=O)NC(C)(C)C)[nH]c(=O)c2c1C | x | -93 | 129 | 104 | 5 | i | 0.95
